Screening data as filed in PubChem BioAssay.
T. gondii HeLa: T. gondii ME49Luc in HeLa cells, luciferase assay, 72 h, no IFN-y (AID 1259421) | activity change, negative = inhibition, % | 6,400 tested, 9.6% active | T. gondii ME49Luc in HeLa, luciferase, 72 h, no IFN-y; hits give low values; reference of the scale and settings of repeat entries not given here; many of its hits are not listed in these tables;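 active = activity change below -70%; inconclusive = fit judged invalid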;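 note: about 20 µM from a 10 mM stock diluted 500-fold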
Starred values were filed as active, the others as inactive; u = inconclusive; & = joins results of further samples; ! = not confirmed by another sample.

SMILES	T. gondii HeLa
Cc1nc2sccn2c(=O)c1CCN1CCC(=C(c2ccc(F)cc2)c2ccc(F)cc2)CC1	19&-60
CCOc1ccc(N=C(C)Nc2ccc(OCC)cc2)cc1	3
C=CC(N)CCC(=O)O (configuration not stated)	9
COC1=CC(=O)C(=O)C/C1=C\C=C\c1ccccc1	-5
Cc1ccc(Sc2ccccc2N2CCNCC2)c(C)c1	23
NC(CSSCC(N)C(=O)O)C(=O)O (configuration not stated)	14
CC(=O)NC(Cc1c[nH]c2ccccc12)C(=O)OCc1cc(C(F)(F)F)cc(C(F)(F)F)c1 (configuration not stated)	-2
Cc1cc(N)c2ccccc2[n+]1CCCCCCCCCC[n+]1c(C)cc(N)c2ccccc21	20
O=C1C=CC(=O)C2=C1C1c3ccccc3C2c2ccccc21	-3
O=C(O)c1cc(N(Cc2ccccc2O)Cc2ccccc2O)ccc1O	2
O=C(NCCCCN1CCN(c2cccc(Cl)c2Cl)CC1)c1ccc2c(c1)Cc1ccccc1-2	4&6
C[C@H](c1ccc(F)cc1CCCC(=O)O)N(c1cc(F)ccc1F)S(=O)(=O)c1ccc(Cl)cc1	5
CCOC(=O)[C@H]1O[C@@H]1C(=O)N[C@@H](CC(C)C)C(=O)NCCC(C)C	2&13
CN1CC(=O)N/C1=N/C(=O)Nc1cccc(Cl)c1	26&33
CO/N=C(/C(=O)N[C@@H]1C(=O)N2C(C(=O)O)=C(C[n+]3cccc4c3CCC4)CS[C@H]12)c1csc(N)n1	14
Cc1nc2sccn2c(=O)c1CCN1CCC(=C(c2ccccc2)c2ccc(F)cc2)CC1	1
COc1cc2c(cc1OC)CN(CCc1ccc(NC(=O)c3cc(OC)c(OC)cc3NC(=O)c3cnc4ccccc4c3)cc1)CC2	1
CCOC(=O)Nc1c[n+](N2CCOCC2)no1	8
CS(=O)(=O)c1cccc(CNc2nc(Nc3ccc4c(c3)CCC(=O)N4)ncc2C(F)(F)F)c1	-29
C=C1CC[C@H](O)C/C1=C/C=C1\CCC[C@]2(C)[C@@H]([C@H](C)CC[C@@H](O)C(C)(C)O)CC[C@@H]12	2

4 structures already listed, sorted by number of heavy atoms, highest first.
SMILES	T. gondii HeLa
C[C@H](c1ccc(F)cc1CCCC(=O)O)N(c1cc(F)ccc1F)S(=O)(=O)c1ccc(Cl)cc1	5
CCOc1ccc(N=C(C)Nc2ccc(OCC)cc2)cc1	3
CN1CC(=O)N/C1=N/C(=O)Nc1cccc(Cl)c1	26&33
NC(CSSCC(N)C(=O)O)C(=O)O (configuration not stated)	14

The main list resumes, starting 6 compounds before the break.
SMILES	T. gondii HeLa
CO/N=C(/C(=O)N[C@@H]1C(=O)N2C(C(=O)O)=C(C[n+]3cccc4c3CCC4)CS[C@H]12)c1csc(N)n1	14
Cc1nc2sccn2c(=O)c1CCN1CCC(=C(c2ccccc2)c2ccc(F)cc2)CC1	1
COc1cc2c(cc1OC)CN(CCc1ccc(NC(=O)c3cc(OC)c(OC)cc3NC(=O)c3cnc4ccccc4c3)cc1)CC2	1
CCOC(=O)Nc1c[n+](N2CCOCC2)no1	8
CS(=O)(=O)c1cccc(CNc2nc(Nc3ccc4c(c3)CCC(=O)N4)ncc2C(F)(F)F)c1	-29
C=C1CC[C@H](O)C/C1=C/C=C1\CCC[C@]2(C)[C@@H]([C@H](C)CC[C@@H](O)C(C)(C)O)CC[C@@H]12	2
COc1ccc(NS(=O)(=O)c2ccc(N=Nc3ccc(O)c(C(=O)O)c3)cc2)nn1	5
CNC[C@H](O)c1cccc(O)c1	3
COc1c(CC(=O)c2cc3c(cc2O)OC(C)(C)C(O)C3)ccc2c1C=CC(C)(C)O2 (configuration not stated)	17
CC12CCC(=O)C=C1CCC1C2[C@@H](O)CC2(C)C1CC[C@]2(O)C(=O)COP(=O)(O)O (some centres not stated)	-4&-5
c1ccc(Oc2nc(NC3CCCCC3)c3[nH]cnc3n2)cc1	-7
CC(Cc1ccc(O)c(O)c1)C(C)Cc1ccc(O)c(O)c1 (configuration not stated)	6
CCCc1nc(C(C)(C)O)c(C(=O)OCc2oc(=O)oc2C)n1Cc1ccc(-c2ccccc2-c2nn[nH]n2)cc1	3&2
CC(=O)NC(C(=O)O)C(C)(C)S[NH2+][O-] (configuration not stated)	16
CNCC(O)c1ccc(OC(=O)C(C)(C)C)c(OC(=O)C(C)(C)C)c1 (configuration not stated)	12
CC(C)SC(=N)N	6&5
OC[C@H]1O[C@@H](n2cnc3c(NCc4ccco4)ncnc32)[C@H](O)[C@@H]1O	-72*
O=C(Oc1cccc2cccnc12)c1ccccc1	0&9
CN1CCCCC1CCN1c2ccccc2Sc2ccc(S(C)=O)cc21 (configuration not stated)	10
O=c1[nH]cnc2ccccc12	1&1
CCCCC#Cc1nc(NC)c2ncn(C3OC(CO)C(O)C3O)c2n1 (configuration not stated)	-3
FC(F)(F)C(Cl)Br (configuration not stated)	16
Nc1ccn([C@H]2CC[C@@H](CO)O2)c(=O)n1	1
C[C@@H]1O[C@@H](OC[C@H]2O[C@@H](Oc3c(-c4ccc(OCCO)c(OCCO)c4)oc4cc(OCCO)cc(O)c4c3=O)[C@H](O)[C@@H](O)[C@@H]2O)[C@H](O)[C@H](O)[C@H]1O	23&2
CCCCC(=O)O[C@]1(C(=O)CO)CCC2C3CCC4=CC(=O)CC[C@]4(C)C3[C@@H](O)C[C@@]21C (some centres not stated)	1&0
O=[N+]([O-])c1cn2c(n1)OC[C@@H](OCc1ccc(OC(F)(F)F)cc1)C2	-79*
COCCOC(=O)C1=C(C)NC(C)=C(C(=O)OC/C=C/c2ccccc2)C1c1cccc([N+](=O)[O-])c1 (configuration not stated)	-33&-18
O=C1NC(=O)/C(=C\c2ccc(-c3ccc(F)cc3)o2)S1	32
CN1c2ccccc2C(=O)N2CCc3c([nH]c4ccccc34)C21 (configuration not stated)	-72*
O=S(=O)(c1ccccc1)c1cnc2c(N3CCNCC3)cccc2c1	9
CC1C(=O)C(=O)[C@@H]2O[C@@H]2C1=O (some centres not stated)	7
CC(C)Cn1cnc2c(N)nc3ccccc3c21	4&8
COc1ccc(-c2oc3ccccc3c(=O)c2OC)cc1	60
NC(=O)OCC(COC(N)=O)c1ccccc1	9&7&3
CC(=O)Oc1cc(C(C)C)c(OCCN(C)C)cc1C	-6
N[C@@H](Cc1cc(I)c(Oc2cc(I)c(O)c(I)c2)c(I)c1)C(=O)O	12&15
CC(C)(C)Cn1c(N)nc2ccc(-c3[nH]c(C(C)(C)C)nc3-c3ccc(F)cc3)nc21	-84*
C=C1C(=O)O[C@H]2[C@H]1CC/C(C)=C/CC[C@@]1(C)O[C@@H]21	5
CC(=O)N[C@@H](CC(=O)O)C(=O)N[C@@H](CCC(=O)O)C(=O)O	13&14
OC1(c2ccc(Cl)cc2)CCN(Cc2c[nH]c3ccccc23)CC1	-9
O=C(O)CC1CC(c2ccccc2)=NO1 (configuration not stated)	-1
CC(C)NCC(O)COc1ccc(COCCOC(C)C)cc1 (configuration not stated)	2&7
N[C@@H](C(=O)O)C1=CCC=CC1	-2
O=C(CN1CCNCC1)NC1CCCCC1	-5
COc1ccc2c(O[C@H]3CC4C(=O)N(C)CCCC/C=C\[C@@H]5C[C@@]5(C(=O)NS(=O)(=O)C5CC5)NC(=O)[C@@H]4C3)cc(-c3nc(C(C)C)cs3)nc2c1C (some centres not stated)	-71*
CCCCC(CC)CCC(CC(C)C)OS(=O)(=O)O (configuration not stated)	2
Nc1nc(NCCNc2ncc(-n3ccnc3)c(-c3ccc(Cl)cc3Cl)n2)ccc1[N+](=O)[O-]	39
NCCCC(O)(P(=O)(O)O)P(=O)(O)O	19
C[C@H]1[C@H](C)CC[C@]2(C(=O)O)CC[C@]3(C)C(=CCC4[C@@]5(C)C[C@@H](O)[C@H](O)[C@@](C)(CO)C5[C@H](O)C[C@]43C)[C@H]12 (some centres not stated)	-88*
C/C(=C\C(=O)Nc1ccccc1C(=O)O)c1ccc2ccccc2c1	61
C=C[C@@]1(C)CC(=O)[C@]2(O)[C@@]3(C)[C@@H](O)CCC(C)(C)[C@@H]3[C@H](OC(=O)CCN(C)C)[C@H](OC(C)=O)[C@@]2(C)O1	0
COc1cc(OC)c2c(OC)c(-c3ccc4c(c3)OCO4)c(=O)oc2c1	-78*
N[C@@H](Cc1cc(CP(=O)(O)O)cc(-c2ccccc2Cl)c1)C(=O)O	14
Nc1c(Br)cc(Br)cc1CNC1CCC(O)CC1 (configuration not stated)	3&3
COC(=O)c1cc(OC)c2c(c1-c1c(C(=O)OC)cc(OC)c3c1OCO3)OCO2	11
CC(O)CCCCn1c(=O)c2c(ncn2C)n(C)c1=O (configuration not stated)	-7
CCc1cc2c(c(CC)n1)CCC(=O)N2Cc1ccc(-c2ccccc2-c2nn[nH]n2)cc1	4&10
CNC(=O)c1ccc(-c2cnc3ncc(Cc4ccc5ncccc5c4)n3n2)cc1F	-3
CC(=O)N1CCN(C)CC1	10&1
O=C(Cc1ccccc1)Nc1nc2ccc(Cl)cc2c2nc(-c3ccco3)nn12	3&3
Cn1c(=O)c(F)c(Nc2ccc(I)cc2F)c2c(=O)n(C[C@@H](O)CO)cnc21	7
O=c1[nH]cnc2c1ncn2[C@@H]1O[C@H](CO)[C@@H](O)[C@H]1O	3&12
Cn1c(N2CCCCS2(=O)=O)nc(C(=O)NCc2ccc(F)cc2)c(O)c1=O	15
Nc1nc(N)c2nc(-c3cccc(O)c3)c(-c3cccc(O)c3)nc2n1	15
CCOC(=O)[C@@]1(CCCCCCOc2ccc(Cl)cc2)CO1	17
NC(=O)OCC(O)COc1ccc(Cl)cc1 (configuration not stated)	31
(list continues)
SMILES	T. gondii HeLa
O=C(O)C1/C(=C\CO)OC2CC(=O)N21 (configuration not stated)	6
CC12C=CCC1C1CCC3CC(=O)CCC3(C)C1CC2 (configuration not stated)	14
Cc1cc(C(=O)NOCCO)c(Nc2ccc(I)cc2F)n(C)c1=O	1
O[C@H](CNC[C@@H](O)[C@H]1CCc2cc(F)ccc2O1)[C@@H]1CCc2cc(F)ccc2O1	10
COc1cc(-c2coc3cc(OCc4ccccc4)c(OC)c(O)c3c2=O)cc(O)c1OC	u
CCN(CC)C(=O)c1cccnc1	7
C[C@@H]1C(=O)O[C@H]2CC34[C@H]5C[C@@H](C(C)(C)C)[C@]36[C@@H](OC(=O)[C@@H]6O)O[C@@]4(C(=O)O5)[C@]21O (some centres not stated)	6
CC12CCC3C(CCC4CC(O)CCC43C)C1CC=C2c1ccccc1 (configuration not stated)	6
c1ccc(COCCCc2cnc[nH]2)cc1	18&-42
CCCN(CCC)S(=O)(=O)c1ccc(C(=O)O)cc1	-16&9
CCOc1ccc(Cc2nccc3cc(OCC)c(OCC)cc23)cc1OCC	-80*!
COC(=O)C(c1ccccc1Cl)N1CCc2sccc2C1 (configuration not stated)	7
C1N2CN3CN1CN(C2)C3	13&13
NC(N)=NC(N)=Nc1cccc(Cl)c1	8&17
CN1CCN(CCCN2c3ccccc3Sc3ccc(Cl)cc32)CC1	18&16
CCCCCCCC/C=C\CCCCCCCC(N)=O	4
COc1c/c(=C2\C=c3ccccc3=N2)[nH]/c1=C\c1[nH]c(C)cc1C	-83*
NCC1CC(=O)N(Cc2ccccc2)C1 (configuration not stated)	15
COc1ccccc1Oc1c(NS(=O)(=O)c2ccc(C(C)(C)C)cc2)nc(-c2ncccn2)nc1OCCO	7
CCOC(=O)[C@@H](N)CCC(=O)N[C@@H](CSCc1ccccc1)C(=O)N[C@@H](C(=O)OCC)c1ccccc1	-2
Nc1ncnc2c1nc(Br)n2[C@@H]1O[C@@H]2COP(=O)(O)O[C@H]2[C@H]1O	7
COc1cc2c(cc1OC)-c1c(oc3cc(O)cc(O)c3c1=O)CO2	33
CCN(CC)CCNC(=O)c1ccc(I)cc1	11
CC(C)c1nc(CN(C)C(=O)N[C@@H](CCN2CCOCC2)C(=O)N[C@H](CC[C@H](Cc2ccccc2)NC(=O)OCc2cncs2)Cc2ccccc2)cs1	-17
O=C1Nc2cc(Cl)ccc2Oc2ccccc21	14
CC(CNC(=O)c1cccnc1)NC(=O)c1cccnc1 (configuration not stated)	8
CCN(CC)C(=O)c1ccc(O)c(OC)c1	16
CCC1=C(C)CN(C(=O)NCCc2ccc(S(=O)(=O)NC(=O)NC3CCC(C)CC3)cc2)C1=O (configuration not stated)	-1&-7
O=S(c1ccccc1)c1ccc2nnnn2n1 (configuration not stated)	7
O=C(O)[C@H]1CN(C/C=C/P(=O)(O)O)CCN1	-7
N#CC[C@@H](C1CCCC1)n1cc(-c2ncnc3[nH]ccc23)cn1	2
CN1C/C=C/CCOc2cccc(c2)-c2ccnc(n2)Nc2cccc(c2)C1	-90*
CCOC(=O)c1cnc2oc3ccc(O)cc3c2c1-c1ccccc1	6
CN(Cc1cc(Br)cc(Br)c1N)C1CCCCC1	18&6
c1ccc2[nH]c(-c3nc4ccccc4[nH]3)nc2c1	156
COc1ccccc1N1CCN(CCN2C(=O)CC3(CCCC3)CC2=O)CC1	7&7
C=C(C)C1CC=C(CO)CC1 (configuration not stated)	6&8
C[C@H](Cc1cc2c(c(C(N)=O)c1)N(CCCO)CC2)NCCOc1ccccc1OCC(F)(F)F	18
CC1(O)CCOC(=O)C1 (configuration not stated)	22
COc1cc2ncnc(Nc3ccc(Cl)cc3F)c2cc1OC	-67&-68

These rows are one share of the data; count on the stated rates, not on these rows.
